NPYLR7 agonist: mosquito NPYLR7 agonism; activation, % at 10 µM; HEK293T NPYLR7/Galpha15, GCaMP6s calcium fluorescence; hit rate 0.15% among 270,000; AID 1259423; in the data active means activation above about 40%;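 further: 0% = vehicle and 100% = reference agonist at the receptor; some compounds past the cut are filed as inactive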
NPYLR7 agonist max-min: second read-out of NPYLR7 agonist, no call of its own (marks repeat the call); activation, %; measured here: Max-Min RFU normalised activation; some inactives read as strong as hits;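 span of the calcium signal over five minutes; 0% = vehicle and 100% = native peptide agonist; compound fluorescence can raise it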
* marks the source's active call; other numbers are inactive results; & = joins results of further samples.

The opening 6 entries, to show the layout:
Values run as follows: NPYLR7 agonist, NPYLR7 agonist max-min
CCCCc1cn(CC2CCN(C(=O)c3sc(C)nc3C)CC2)nn1
→ 3, 1
O=c1cc(CN2CCN(S(=O)(=O)c3ccc(Cl)cc3)CC2)occ1OCc1ccccc1Cl
→ 3, 4
CN(C)S(=O)(=O)c1ccc(Sc2ccccc2)c(CO)c1
→ 10, 6
Cc1cc(Cl)cc(C)c1Oc1ccc(Cl)cc1NC(=O)C(C)S(C)(=O)=O (centres undefined)
→ 4, 2
CCOC(=O)C1CCCN(C(=O)c2ccc(CSc3nc(-c4ccccc4)cc(N(C)C)n3)cc2)C1 (centres undefined)
→ 16, 23
O=C(NCc1nnc2n1CCCC2)NC1CCCCc2ccccc21 (centres undefined)
→ 7, 6

All compounds of this part (from the top)
Values run as follows: NPYLR7 agonist, NPYLR7 agonist max-min
CCCCc1cn(CC2CCN(C(=O)c3sc(C)nc3C)CC2)nn1
→ 3, 1
O=c1cc(CN2CCN(S(=O)(=O)c3ccc(Cl)cc3)CC2)occ1OCc1ccccc1Cl
→ 3, 4
CN(C)S(=O)(=O)c1ccc(Sc2ccccc2)c(CO)c1
→ 10, 6
Cc1cc(Cl)cc(C)c1Oc1ccc(Cl)cc1NC(=O)C(C)S(C)(=O)=O (centres undefined)
→ 4, 2
CCOC(=O)C1CCCN(C(=O)c2ccc(CSc3nc(-c4ccccc4)cc(N(C)C)n3)cc2)C1 (centres undefined)
→ 16, 23
O=C(NCc1nnc2n1CCCC2)NC1CCCCc2ccccc21 (centres undefined)
→ 7, 6
O=C(O)CN1C(=O)/C(=C\c2cc([N+](=O)[O-])cc(Br)c2O)SC1=S
→ 81*, 82*
Cn1ccc(NC(=O)CCCN2CCN(c3ccccc3)CC2)n1
→ 20, 8
O=C(O)CC1CC(c2ccccc2)=NO1 (centres undefined)
→ -10, -13
O=C(NCCNc1nc(-c2cccs2)nc2cc(Cl)ccc12)Nc1ccc(Cl)cc1Cl
→ 4, 14
Cc1cc(=O)n2c3ccccc3n(CC(O)CCl)c2c1C#N (centres undefined)
→ 7, 2
COc1ccc(-c2nnc(SCC(=O)N3CCOCC3)n2-c2ccc(C)cc2)cc1
→ 9, 16
COCCN(CC(=O)N(Cc1ccc(F)cc1)Cc1ccco1)S(=O)(=O)c1c(C)cc(C)cc1C
→ 1, 6
Cc1ccc2nc(CNc3nc(-c4ccccc4)nc4c3CCNC4)cn2c1
→ 1, 9
CC1CCN(Cc2nnnn2CC(=O)N(C)Cc2cccnc2)CC1
→ 6&3, 5&1
NS(=O)(=O)c1ccc(CCNC(=O)c2cccc3cccnc23)s1
→ 7, 4
O=C(c1ccc(F)cc1)N(CCN1CCOCC1)Cc1nccn1Cc1ccc(F)c(F)c1
→ 8, 17
COc1ncccc1CN1CCC(CNC(=O)c2ccncc2)C1 (centres undefined)
→ 4, 2
CC1(Cc2ccc(F)cc2)C(=O)Nc2cc(Cl)cc(Cl)c21 (centres undefined)
→ 0, 0
COc1cc(CNC(=O)c2cccc(Cn3cccn3)c2)ccc1O
→ 4, 5
O=C(CSc1nnnn1C1CCCC1)c1ccc(CC(=O)N2CCOCC2)s1
→ 9, 8
O=C(CC(C(=O)O)c1ccccc1)NNC(=O)c1ccc(F)cc1 (centres undefined)
→ 8, 7
CN(C)Cc1ccc(CNC(=O)c2cc(Cl)sc2Cl)cc1
→ 0, 0
CCCCCCC1(C)NC(=O)NC1=O (centres undefined)
→ 2, -3
CCCCn1c(-c2nnc(CCC)o2)cc2ccccc21
→ -1, -2
C=c1onc(-c2ccccc2Cl)c1=C1N=C(c2ccc(-c3ccc(OCCC)cc3)cc2)NO1
→ -4, -3
Clc1ccc(Cn2c(CN3CCCC3)nc3ccccc32)cc1
→ -6&-2&9, -11&-7&-7
Cc1c(-c2ccc(F)cc2)[nH]c2ccc(CNS(=O)(=O)C3CC3)cc12
→ 0, -3
O=C(CSCc1ccccc1)N1N=C(c2cccs2)CC1c1cccs1 (centres undefined)
→ 3, 3
Cc1cccc(CO[C@]2(C(=O)NCC3CCCO3)CC(OCc3cccc(Cl)c3)[C@H](O)[C@H](O)C2)c1 (some centres undefined)
→ 5, 11
CCN(CC)C(=O)C(Cc1ccccc1)N1C(=O)c2ccccc2C1=O (centres undefined)
→ 0, -1
O=C(c1cn(-c2ccccc2)nn1)N1CCC(OCc2ccccn2)CC1
→ 2, -6
O=C(CCc1ccccc1)C(=O)N1CCC(N2CCC(C(=O)NC3CC3)CC2)CC1
→ 1&-3, -1&3
CC(C)NS(=O)(=O)c1cccc2nonc12
→ 0, -2
Cc1cc(CNC(=O)C2CCN(Cc3ccco3)CC2)c2[nH]c(C)c(C)c2c1
→ 0, -6
NC(N)=NN=Cc1cc(Cl)cc([N+](=O)[O-])c1O
→ -3, -5
CCOC(=O)C1CCN(C(=O)Cc2nn(C)c(=O)c3ccccc23)CC1
→ -1, -1
COC1CN(C)C(=O)CN(S(=O)(=O)c2cccs2)C1 (centres undefined)
→ -5, 5
O=C(CCC1CCCN(Cc2cc3c(cc2Cl)OCO3)C1)Nc1ccccc1F (centres undefined)
→ 13, 10
COc1cc(OC)cc(C(=O)NCC2CCN(c3nc(Cc4ccc(Cl)cc4)ns3)CC2)c1
→ 20, 31
CC(=O)N(CN1C(=O)c2ccc([N+](=O)[O-])cc2C1=O)c1ccc(Cl)cc1
→ 3, 3
Cc1ccccc1N=C1NC(=O)C(Cc2ccccc2[N+](=O)[O-])S1 (centres undefined)
→ 20, 23
CC(=O)N[C@@H](CC(=O)O)C(=O)N[C@@H](CCC(=O)O)C(=O)O
→ -7, -15
CSCCCNC(=O)C1CCC(=O)N(Cc2cccc(C(F)(F)F)c2)C1 (centres undefined)
→ 4, 0
CC1C(=O)N(c2ccccc2-c2ccccc2)CCN1Cc1ccccc1 (centres undefined)
→ 12, 27
Oc1cccc(/C=N\Nc2cc(N3CCCC3)nc(N3CCCC3)n2)c1
→ 14, 10
CCOC(=O)c1cnn(C)c1NC(=O)COc1cc(C)ccc1C(C)C
→ 0, -1
CCCCn1c(N)c(N(C(=O)CN(C)Cc2ccc(C)cc2C)C2CCCC2)c(=O)[nH]c1=O
→ -1, 8
O=C(NCc1nnc2n1-c1ccccc1CC2)c1ccccc1Cl
→ -4, -3
CCN(CC)C(=O)CN(C)CC(=O)Nc1ccc(Br)cc1Cl
→ 7, 4
CCCCn1nc(C)c(-c2cc(C(=O)O)[nH]n2)c1C
→ 4, 3
CC(C)C1=NOC(C(=O)N2CCC(CCC(=O)Nc3ccccc3)CC2)C1 (centres undefined)
→ 23&13, 11&6
CC1CN2C(=O)CN(C(=O)Nc3c(F)cccc3F)CC2c2ccccc21 (centres undefined)
→ 3, -1
COC(=O)CN1CCN(c2nc3c(c(=O)[nH]c(=O)n3C)n2Cc2cccc3ccccc23)CC1
→ 4, 4
O=C1c2cc(F)c(F)c(F)c2SC2=NCCN12
→ 11, 11
Cc1sc2nc(C(C)C)oc(=O)c2c1C
→ 4, 0
O=c1cc(CN2CCOC(C(F)(F)F)C2)[nH]c(=O)[nH]1 (centres undefined)
→ -1, -1
COc1ccccc1OCC1CN(C(=O)CNC(=O)c2cccc(C(F)(F)F)c2)CCO1 (centres undefined)
→ 19, 22
CCOC(=O)c1cccnc1Oc1cccc(NC(=O)CCCC(=O)c2ccccc2)c1
→ -7, -11
Cc1nc2ccc(Cl)cn2c(=O)c1NC(=O)Cc1ccc(-c2ccccc2)cc1
→ 2, 0

Single records, from the list above. Screens in order: NPYLR7 agonist	NPYLR7 agonist max-min
Cc1ccccc1N=C1NC(=O)C(Cc2ccccc2[N+](=O)[O-])S1 (centres undefined) across the screens: 20	23
COC1CN(C)C(=O)CN(S(=O)(=O)c2cccs2)C1 (centres undefined) across the screens: -5	5
O=C(CCC1CCCN(Cc2cc3c(cc2Cl)OCO3)C1)Nc1ccccc1F (centres undefined) across the screens: 13	10

Next part:
Values run as follows: NPYLR7 agonist, NPYLR7 agonist max-min
CC(C)(C)c1csc(CN2CCN(CC(=O)N3CCc4ccccc43)CC2)n1
→ -10, -17
OC1(c2ccc(Cl)cc2)CCN(Cc2c[nH]c3ccccc23)CC1
→ 4, -31
Cc1nn(-c2ccccc2)c(C)c1NC(=O)CN1CCCCC1C (centres undefined)
→ 7, 5
CC(C)(C)C1CCC(NC(=O)c2ccc(CSc3nnc4ccccn34)cc2)CC1 (centres undefined)
→ -5, -7
N#Cc1cccc(CN2C3CCC4(CC3)OC(=O)N(Cc3ccccc3)CC24)c1 (centres undefined)
→ 17, 24
O=C1c2ccc([N+](=O)[O-])cc2C(=O)N1CNc1ccc(F)cc1
→ 0, -5
Cc1nc2scc(C)n2c(=O)c1NC(=O)CC1CCCC1
→ 9, -1
O=C(CCN1C(=O)C2CC=CCC2C1=O)Nc1nccs1 (centres undefined)
→ 7, 6
CS(=O)(=O)CC1(CNCc2cccnc2)CC1
→ -3, -5
Cc1cc(C)c(-c2ccc(=O)n(CC(=O)NCc3ccc(F)cc3)n2)cc1C
→ 9, 2
Cc1noc(C)c1S(=O)(=O)NCCn1ncc2c(N3CCCC3)ncnc21
→ 1, -2
CC(c1cccnc1)N1CC23C=CC(O2)C(C(=O)N2CCCC4CCCCC42)C3C1=O (centres undefined)
→ 0, 24
COCCN1C(=O)[C@]2(C)[C@H](c3ccccc31)[C@@H](C(N)=O)CN2C(=O)NC1CCCC1
→ 16, 15
CN(C)CCOC(=O)c1ccco1
→ 0, 5
CCCSc1nnc2n1CCN2c1ccccc1
→ 3, 2
COc1nc2sccn2c1C=NN1CC(=O)NC1=O
→ 2, 7
CCN1CCC(C(=O)NCc2cccnc2N(C)C2CCCCC2)C1 (centres undefined)
→ 7, 3
N#CC1CCCc2c1[nH]c1ccc(Br)cc21 (centres undefined)
→ 12, 6
CCOC(=O)C1CCN(C(=O)c2coc(CN(CCc3c[nH]c4ccccc34)Cc3cccc(F)c3)n2)CC1
→ -2, -3
O=C(c1ccccc1Cl)n1c(=O)oc2cc([N+](=O)[O-])ccc21
→ -8, -10
COc1ccccc1-n1c(=O)c2ccccc2n(Cc2ccc(C(=O)NCc3cccc(C(F)(F)F)c3)cc2)c1=O
→ 3, 4
CCc1nc2ccc(C(=O)NCCCN(C)C)cn2c1N(C)CCCc1ccccc1
→ 3, 10
CCOC(=O)C(c1cccc(OC)c1)C1C=CC(NC(=O)c2cccc(OC(F)(F)F)c2)C1 (centres undefined)
→ -4, -13
Cc1ccc(-c2nc(Nc3ccccc3F)c3ccccc3n2)cc1
→ 27, 18
Cc1c(Cl)cccc1-n1nc(C)c2c(C)cc(=O)oc21
→ -10, -18
CC(C)OC(=O)c1ccc(CN2CCCCC2)s1
→ 2, 0
Cc1ccc2oc(-c3ccc(NC(=O)c4cc([N+](=O)[O-])ccc4Cl)cc3)nc2c1
→ 0, -8
CC(CCc1ccccc1)NS(=O)(=O)c1ccccc1Cl (centres undefined)
→ 1, 14
CCCCn1c(SCC(=O)N2CCOC3CCCCC32)nc(C)c1C (centres undefined)
→ 5, 5
O=C(c1ccc(Cl)nc1)N1CCN(C(c2ccc(Cl)cc2)c2ccc(Cl)cc2)CC1
→ 14, 8
CCOc1ccccc1C(=O)N1CCC(c2nc(-c3ccc(F)c(F)c3)no2)CC1
→ 3, 8
O=C(O)c1ccc(-c2ccn[nH]2)cc1Cl
→ 8, 5
COc1ccc2sc(C(=O)N3CCCC3C)c(Cl)c2c1 (centres undefined)
→ -2, -6
C#CCN(CC(=O)N(CCc1c[nH]c2ccccc12)Cc1ccc(Cl)c(Cl)c1)CC(C)C
→ 1, 2
CCOC(=O)c1cc(-c2cccc(NC(=O)Cc3ccc(OC)cc3)c2)n(-c2ccccc2OC)n1
→ 21, 12
Cc1nc(N2CCCN(C)CC2)c2c3c(sc2n1)CCC3
→ 4, 1
Fc1ccc(-c2nnn3c2nc(NCc2ccccc2)c2ccccc23)cc1
→ -2, -7
Cc1cccnc1NCCNc1ncnc2c1CCN(C(=O)C1CC1)C2
→ 8, 3
COc1cc(-c2ccnc(N3CCN(C(=O)C45CC[C@@](C)(C(=O)O4)C5(C)C)CC3)n2)cc(OC)c1OC
→ 6, 3
CCCOC(=O)C1=C(C)N(C)C(=O)NC1c1ccc(Cl)c(Cl)c1 (centres undefined)
→ -4, -8
Cc1cc(C)n(-c2ncnc3sc4c(c23)CCCC4)n1
→ 4, 3
CCS(=O)(=O)Oc1cc(CN(C(=O)Nc2ccc(C)cc2)C(C)C)ccc1OC
→ -3, 5
Cc1ccc(C(=O)N2CCC3(CCNCC3)CC2)cc1O
→ 10, 6
COCc1cc(C)nc(N/N=C\c2cc(OC)c(OC)cc2[N+](=O)[O-])c1C#N
→ -4, 6
CCN(CC)S(=O)(=O)N1CC=C(c2c[nH]c3cccc(C)c23)CC1
→ -4, -5
O=C(O/C(=C1/CCCCC1N1CCOCC1)c1ccccc1)c1ccccc1 (centres undefined)
→ 3, 1
Cn1ncc2c1CCCC2NC(=O)Nc1cnn(CC(=O)N2CCOC(C)(C)C2)c1 (centres undefined)
→ 3, 0
O=C(CSc1nc2c(cnn2CCO)c(=O)[nH]1)Nc1ccccc1
→ 4, 6
O=C(c1ccccc1)N1CCN(C(=O)c2n[nH]c(=O)c3ccccc23)CC1
→ -6, -10
CC(=O)Nc1ccc(-c2nnc3ccc(-c4ccc(S(C)(=O)=O)cc4)cn23)cc1
→ -9, -11
Nc1cccc(-c2cc(NC3CCCCC3)ncn2)c1
→ 7, 3
Cc1cc(=O)n(-c2nc(-c3ccccc3)cs2)[nH]1
→ -3, -4
COCc1c(Br)c(C)nc(OCC(=O)N/N=C\c2cc(Br)c(O)c(OC)c2)c1C#N
→ 12, 22
Cc1ccc(-n2c(-c3ccc(Cl)cc3)cc(C(=O)NCCN3CCOCC3)c2C)cc1
→ -7, -11
Cc1cc(=O)[nH]c(NN=Cc2cc(C)n(CC(F)(F)F)c2C)n1
→ 7, 10
O=S(=O)(NCc1nnnn1-c1ccccc1)c1cccs1
→ 16, 8
CCCNC(=O)c1cc(C2CCCCN2C(=O)c2ccc(C(C)C)cc2)on1 (centres undefined)
→ 0, -3
COc1cc(OC)c(OC)cc1/C=C1N=C(/C=C/c2cccc([N+](=O)[O-])c2)OC\1=O
→ -9, -10
CN(C)CCCN1C(=O)C(=O)C(=C(O)c2ccc(F)cc2)C1c1cccc(Br)c1 (centres undefined)
→ 9, 7
O=C(c1cccc(Cn2cccn2)c1)N1CCCC(Nc2ccc(F)cc2)C1 (centres undefined)
→ 6, 3

Not all compounds are listed, so the mix of outcomes need not match the whole.
